GIV-Gai inh = GIV-Galpha-i interaction inhibition. P08753. Galpha-i3/FITC-GIV peptide fluorescence polarization, 90 min; hits give low values; scaled: aluminum fluoride 0%, vehicle 100%. percent of control (FP), % (no concentration beside the values). 210,000 tested, 0.42% active;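 active means replicate mean at 85% of control or lower, very high polarization wells dropped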;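 further: wells of about 15 µL received 100 nL stock; the first replicate is given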
Target sequence (P08753 whole entry, looked up): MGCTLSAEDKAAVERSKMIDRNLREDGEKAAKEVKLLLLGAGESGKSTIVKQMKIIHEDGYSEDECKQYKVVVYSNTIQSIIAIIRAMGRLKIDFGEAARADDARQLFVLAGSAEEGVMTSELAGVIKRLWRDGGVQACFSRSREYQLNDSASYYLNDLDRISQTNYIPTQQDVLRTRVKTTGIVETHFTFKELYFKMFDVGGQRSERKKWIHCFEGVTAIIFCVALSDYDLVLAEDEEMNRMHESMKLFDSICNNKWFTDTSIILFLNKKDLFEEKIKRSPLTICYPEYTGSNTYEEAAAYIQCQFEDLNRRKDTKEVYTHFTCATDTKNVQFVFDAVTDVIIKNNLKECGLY
* hit, by the source's call.

GIV-Gai inh,Structure
106.7,CCSc1nnc2n(CCc3ccccc3)c(=O)c3c(n12)-c1ccccc1CC31CCCCC1
106.8,COc1ccc(C2=NN(C(=O)CSc3nnc(CNC(=O)c4cccc(C)c4)n3C)C(c3ccc(F)cc3)C2)cc1 (centres undefined)
103.6,Cn1c(=O)n(Cc2ccccc2F)c(=O)c2cnc(-c3ccncc3)nc21
109.0,Brc1ccc(-c2nc3ccccc3nc2-c2ccccc2)cc1
102.9,Cc1ccc(-c2ccc(=O)n(CCc3nc(-c4ccc5c(c4)OCO5)no3)n2)cc1C
104.6,Cc1nc(-c2csc(S(=O)(=O)N3CCCC(C(=O)Nc4cc(F)ccc4F)C3)c2)no1 (centres undefined)
98.2,CCOC(=O)c1nc(Nc2ccc(F)cc2)c2c(C)c(C)n(-c3ccc(C)cc3)c2n1
101.8,COc1cc(/C=C\C(=O)Nc2c3c(nn2-c2ccc([N+](=O)[O-])cc2)CSC3)cc(OC)c1OC
104.6,CCOC(=O)C1=C(C)NC2=C(C(=O)C(C(=O)OCC)C(c3cccc(OC)c3)C2)C1c1ccc(Cl)cc1 (centres undefined)
106.9,CCOC(=O)c1nnn(-c2nc(OC)nc(N3CCOCC3)n2)c1C
105.1,O=C(CCc1nc(CSc2n[nH]c(-c3ccc(F)cc3)n2)no1)Nc1nccs1
109.3,O=C(c1ccc2c(=O)n(Cc3ccco3)c(=S)[nH]c2c1)N1CCN(Cc2ccc3c(c2)OCO3)CC1

Continuation:
GIV-Gai inh,Structure
102.2,Cc1ccc(Cl)cc1N1C(=O)C2C(C1=O)C1(C)c3ccccc3C2(C)c2ccccc21 (centres undefined)
100.8,COc1ccc(-c2csc(Cc3nc(-c4ccccc4Cl)no3)n2)cc1
111.8,COc1ccc(C2c3c(-c4ccccc4)n[nH]c3C(=O)N2c2ccccc2)cc1OC (centres undefined)
97.7,COc1ccc(NC(=O)c2nnc(C3CCN(C(=O)C4CCC4)CC3)s2)cc1
103.3,COc1ccc(Nc2c3c4c(cccc4n(C)c2=O)C(=O)c2ccccc2-3)cc1
115.7,CC(C)CN(Cc1ccc(F)cc1)Cc1cc(=O)n2nc(C(C)C)sc2n1
104.2,CN(C)CCC1CCCCN1C(=O)C1CCC1 (centres undefined)
107.8,Cc1ncc(-c2ccc(S(=O)(=O)NCc3cccs3)s2)o1
103.7,COc1ccc(C(=O)Nc2nc(-c3ccccn3)cs2)c(OC)c1
111.8,O=C(Nc1ccc(NS(=O)(=O)c2cc(C(=O)Nc3ccccc3)ccc2Cl)cc1)c1ccccc1
104.6,CC1(C#CCN2CCCCC2)CCC2C(O1)c1ccccc1OC2(C)C (centres undefined)
97.3,Cc1ccc(NC(=O)N2CCN(Cc3cc(=O)n4nc(-c5ccccc5)sc4n3)CC2)cc1Cl

The list goes on.
GIV-Gai inh,Structure
115.7,CCN(CC)c1ncnc2sc(C(=O)Nc3ccc(OC)cc3OC)c(C)c12
104.2,Cc1ccc(-c2nc(CSCC(=O)Nc3ccc(C(C)C)cc3)no2)cc1
103.8,CCc1nnc(-c2coc(S(=O)(=O)N3CCC(C)CC3)c2)o1
107.7,O=C(Nc1cc(-c2cccc(Cl)c2)nn1-c1ccccc1)c1ccccc1
108.2,Cn1c(SCc2nc(-c3ccc(Br)cc3)no2)nc2cc3c(cc2c1=O)OCO3
103.7,CCc1ccc2c(c1)C(O)(c1c[nH]c3ccccc13)C(=O)N2 (centres undefined)
108.2,CCN1C(=O)c2cccc3c(S(=O)(=O)N(CCO)CCO)ccc1c23
101.6,CCOC(=O)c1cnc2ccccc2c1Nc1cccc(C(=O)OC)c1
107.5,CC(=O)N1CCc2cc(N3CC(C(=O)N4CCC5(CC4)OCCO5)CC3=O)ccc21 (centres undefined)
105.1,COc1cccc(CNC(=O)CSc2nc3cc(-c4ccccc4)sc3c(=O)n2C)c1OC
107.6,CCc1nnc(-c2coc(S(=O)(=O)N3CCCCC3C)c2)o1 (centres undefined)
101.0,Cc1nn(C)c(C)c1CNc1nc(C2CC2)nc2c1CCC2

Taken from above.
COc1ccc(Nc2c3c4c(cccc4n(C)c2=O)C(=O)c2ccccc2-3)cc1 in GIV-Gai inh: 103.3
O=C(Nc1ccc(NS(=O)(=O)c2cc(C(=O)Nc3ccccc3)ccc2Cl)cc1)c1ccccc1 in GIV-Gai inh: 111.8

Additional records.
GIV-Gai inh,Structure
103.1,CCN(C(=O)CSc1nc2n[nH]c(C)c2c(=N)n1-c1ccc(Cl)c(C)c1)c1cccc(C)c1
102.4,CCOc1ccc(-c2nc(CN3CCN(C(=O)Nc4cc(OC)ccc4OC)CC3)c(C)o2)cc1
108.3,COc1ccc(OC)c(N(CC(=O)Nc2cccc(Cl)c2)S(=O)(=O)c2ccc(OC)c(OC)c2)c1
101.7,CCCCN1C(=O)c2ccccc2CC1(C)C(=O)NCc1ccccc1OC (centres undefined)
117.6,CC(=O)N1CCN(c2cc(-c3nc(-c4ccccc4)no3)c3ccccc3n2)CC1
105.5,CCCS(=O)(=O)c1c(S(=O)(=O)CCC)c2c(C)cccn2c1C(=O)N/N=C\c1c[nH]c2ccccc12
108.1,O=C(CNCc1ccccc1Cl)CSc1nc2[nH]ncc2c(=O)n1-c1cccc(C(F)(F)F)c1
94.5,COc1cccc(C2CC(=O)Nc3c2cnn3-c2nc3ccccc3s2)c1OC (centres undefined)
102.4,COc1ccc(CCNC(=O)c2ccc3c(=O)n(CCc4ccccc4)c(=S)[nH]c3c2)cc1OC
100.3,O=c1cc(CN(Cc2ccccc2)Cc2ccccc2)nc2sc(C3CC3)nn12
104.3,O=C(c1ccc2ccnc(N3CCN(c4ccc(F)cc4)CC3)c2c1)N1CCN(c2ccccc2)CC1
107.1,CCOc1ccccc1C(=O)NCC(=O)NCc1cscn1

Following part:
GIV-Gai inh,Structure
105.8,Cc1noc(C)c1S(=O)(=O)NCc1nc2cccnc2n1C1CC1
110.7,CCN(Cc1ccccc1)Cc1cc(=O)n2nc(C3CC3)sc2n1
105.0,CCCc1[nH]n(-c2ccc(F)cc2)c(=O)c1C=NCCSc1ccc(C)cc1
104.1,O=C(c1ccccc1)c1cc(Cl)cc2c1NC(C1CC=CCC1)C1CC=CC21 (centres undefined)
114.1,CCOC(=O)C1=C(CSc2nc(-c3cccs3)ccc2C#N)OC(N)=C(C#N)C1c1cccs1 (centres undefined)
95.7,O=C(CSc1nnc2c3ccccc3nc(-c3ccccc3)n12)NC1CCCCC1
93.1,O=C(COc1ccccc1)N1CCC(Nc2ncnc3c2CCC3)C1 (centres undefined)
98.9,CCCc1cc(C2CCCN2S(=O)(=O)CC)no1 (centres undefined)
122.4,Cc1cc(C)c(C#N)c(SCc2[nH]nc3c2[C@@H](c2ccccc2[N+](=O)[O-])C(C#N)=C(N)O3)n1
114.0,CCCCCCCCOc1ccc(-c2ncc(CCCCCC)cn2)cc1
100.2,CNCC(=O)NCc1nc2cccnc2n1CCOC
113.1,CCOC(=O)c1cnc2ccc(OCC)cc2c1Nc1ccccc1C(=O)OC

More records:
GIV-Gai inh,Structure
98.1,CN(C)CCNc1nc(Nc2cccc(F)c2)c2cnn(-c3ccccc3)c2n1
99.8,CCOc1nc(NCCN2CCOCC2)nc(Nc2ccc([N+](=O)[O-])cc2)n1
109.2,COc1ccc(NC(=O)CSc2nc3n[nH]c(C)c3c(=N)n2-c2ccc(Cl)c(C)c2)c(OC)c1
107.3,CCOC(=O)c1c(NC(=S)Nc2ccc(C)cc2)sc2c1CC(C)(C)OC2
103.9,Fc1ccc2nc3c(nc2c1)c1ccccc1n3Cc1cccc(C(F)(F)F)c1
114.9,Cc1cccc(C(=O)N2N=C(C(F)(F)F)CC2(O)c2cccc([N+](=O)[O-])c2)c1 (centres undefined)
111.0,COc1ccc(NC(=O)Cn2nc3c4sc(N(C)C)nc4ncn3c2=O)cc1Cl
103.9,c1ccc(CCSc2nnc(-c3ccncc3)n2-c2ccccc2)cc1
104.2,Cc1cc2c(cc1C)N=C(c1ccc(F)cc1)CC(SCC(=O)Nc1ccc3c(c1)OCO3)=N2
112.0,CN(C(=O)C1C2CCCC1C2c1ccccc1)c1ccc(O)cc1 (centres undefined)
104.4,Cc1ccc(S(=O)(=O)Nc2cccc(C(=O)N3CCCC(C(=O)NCC4CCCO4)C3)c2)c(C)c1 (centres undefined)
104.4,Cc1ccc(C)c(CS(=O)(=O)N2CCC(CN3CCCC(C)C3)CC2)c1 (centres undefined)

Additional records:
GIV-Gai inh,Structure
107.7,COCCNc1nc(SCc2ccc([N+](=O)[O-])cc2)nc2ccccc12
99.6,C=CCOc1cc(C2CC(=O)Nc3c2c(C)nn3-c2nncc(-c3ccc(OC)cc3)n2)ccc1OC (centres undefined)
103.3,Cc1cc(C2CCCN2C(=O)Nc2ccc(F)cc2F)no1 (centres undefined)
113.2,CCOc1cc(Br)c(/C=c2/sc3nc4ccccc4n3c2=O)cc1OC
101.8,Cc1ccc(-c2nc3nc(-c4ccc(F)cc4)cn3nc2-c2ccc(C)cc2)cc1
113.0,CCOC(=O)CC(=O)CSc1nc2c(sc(=S)n2-c2cccc(OC)c2)c2nc3ccccc3n12
103.3,O=C(CN1c2ccccc2NC2=C(C(=O)CCC2)C1c1cccs1)NCC1CCCO1 (centres undefined)
103.6,CCOC(=O)c1ccc(Oc2nc(OC)nc(N(C)C)n2)cc1
100.0,Cc1nc(-c2csc(S(=O)(=O)NC3CC3)c2)no1
106.0,COc1ccc(-c2nc3ccc(C(=O)NCCC4=CCCCC4)cc3nc2-c2ccc(OC)c(OC)c2)cc1OC
96.2,C=CCn1c(SCC(=O)N2CCCc3ccccc32)nc2c([nH]c3ccccc32)c1=O
106.5,CCCOc1ccc(-c2nn3c(=O)c(NC(=O)c4ccc(Cl)cc4)cnc3o2)cc1

Sorted by molecular weight (rising): some entries from above.
GIV-Gai inh,Structure
100.0,Cc1nc(-c2csc(S(=O)(=O)NC3CC3)c2)no1
103.3,Cc1cc(C2CCCN2C(=O)Nc2ccc(F)cc2F)no1 (centres undefined)
103.6,CCOC(=O)c1ccc(Oc2nc(OC)nc(N(C)C)n2)cc1
106.5,CCCOc1ccc(-c2nn3c(=O)c(NC(=O)c4ccc(Cl)cc4)cnc3o2)cc1
96.2,C=CCn1c(SCC(=O)N2CCCc3ccccc32)nc2c([nH]c3ccccc32)c1=O
99.6,C=CCOc1cc(C2CC(=O)Nc3c2c(C)nn3-c2nncc(-c3ccc(OC)cc3)n2)ccc1OC (centres undefined)
106.0,COc1ccc(-c2nc3ccc(C(=O)NCCC4=CCCCC4)cc3nc2-c2ccc(OC)c(OC)c2)cc1OC

Laid out differently: two of the compounds above.
Molecule	GIV-Gai inh
Cc1nc(-c2csc(S(=O)(=O)NC3CC3)c2)no1	100.0
COc1ccc(-c2nc3ccc(C(=O)NCCC4=CCCCC4)cc3nc2-c2ccc(OC)c(OC)c2)cc1OC	106.0

Further results
GIV-Gai inh,Structure
130.1,CCOC(=O)C1=C(CSc2nc(CC)c(C)cc2C#N)OC(N)=C(C#N)C1c1ccc(OC)cc1 (centres undefined)
123.9,O=C1CC(c2ccc(F)c(Br)c2)c2ccc3ccccc3c2N1 (centres undefined)
101.2,O=C(NC1CCCc2ccccc21)c1cccc(Nc2ncc(-c3ccc(F)cc3)cn2)c1 (centres undefined)
100.7,CCNS(=O)(=O)c1cc2c(c([N+](=O)[O-])c1)-c1c(cc(S(=O)(=O)NCC)cc1[N+](=O)[O-])C2=O
100.0,C=CCOc1ccc(C2CC(=O)Nc3c2c(C)nn3-c2nc3ccc(OCC)cc3s2)cc1 (centres undefined)
105.2,Cc1ccccc1-n1nnnc1C(C)(C)N
120.2,CCOC(=O)C1=C(c2ccccc2)N=C2SCC(=O)N2C1c1ccccc1 (centres undefined)
101.9,O=C1NC2(CCCC2)NN1c1ccc(Br)cc1
145.9,Cc1cc(=O)[nH]c2nnc(SCC(=O)c3ccc(Cl)cc3)n12
104.2,CCN1C=C(C(=O)OC)C(C)=NS1(=O)=O
114.4,O=C(Nc1cc(Cl)ccc1Oc1ccc2ccccc2c1Cl)c1cc(I)cc(I)c1O
101.6,O=S(=O)(Cc1nc(-c2ccc3c(c2)OCO3)no1)c1ccc(Br)cc1

The list continues:
GIV-Gai inh,Structure
103.1,COc1cccc(CNC(=O)C2(C)CCCN(C(=O)NCC3CCCO3)C2)c1 (centres undefined)
101.5,CC1CCCCN1C(=O)c1cc(CN2CCOCC2)on1 (centres undefined)
97.2,COc1ccccc1NC(=O)C1=C(C)NC(SCC(=O)Nc2ccc(C)c(C)c2)=C(C#N)C1c1ccccc1 (centres undefined)
106.3,Cc1cccc(C2(c3cccc(C)c3)CC2C(=O)Nc2ccc(C#N)cc2)c1 (centres undefined)
105.8,Cc1ccc(C2(C)CC(C)(C)N(C(=O)CN3CCOCC3)c3ccccc32)cc1 (centres undefined)
101.7,CCOC(=O)C1=C(C)NC2=C(C(=O)C(C(=O)OCC)C(c3ccc(OC)cc3)C2)C1c1sccc1C (centres undefined)
104.3,COC(=O)C(NC(=O)C(Cc1c[nH]c2ccccc12)NC(=O)C(Cc1ccccc1)NC(=O)OC(C)(C)C)C(C)C (centres undefined)
120.3,O=C(NC1CCCC1)c1ccc2nc3[nH]c4ccccc4c3nc2c1
98.8,CCN1CCN(C(=O)C2(c3ccc(F)cc3)CC2)CC1
115.4,COc1ccc(-c2nnc(SCC(=O)Nc3ccccc3OC)nc2-c2ccc(OC)cc2)cc1
98.1,COCCNC(=O)C1CCCN(S(=O)(=O)c2ccc3c(c2)CCCN3C(C)=O)C1 (centres undefined)
116.2,CCCCOc1cccc(C(=O)Nc2cc(-c3nc4ncccc4o3)ccc2Cl)c1

Continuation:
GIV-Gai inh,Structure
108.1,O=C(Nc1cnc(N2CCN(c3ccccc3)CC2)c(C(=O)O)c1)c1ccccc1F
107.4,O=C(c1ccc2ccnc(N3CCN(c4ccccc4F)CC3)c2c1)N1CCOCC1
113.8,COC(=O)c1nnn(-c2nonc2N)c1CN1CCC(C)CC1
104.6,COc1ccc(C2C(N3C(=O)c4c(Cl)c(Cl)c(Cl)c(Cl)c4C3=O)C(=O)N2c2ccc(Br)c(C)c2)cc1Br (centres undefined)
114.4,Brc1ccc2[nH]cc(-c3nnc4ccc5ccccc5n34)c2c1
112.0,CCOC(=O)C1=C(O)/C(=C/c2ccc(OCC)cc2)SC1=Nc1ccccc1
100.9,O=C(CSc1nc2ccccc2nc1Cc1cccc([N+](=O)[O-])c1)NC1CCCCC1

Not all compounds are listed (hit frequency here may not be typical).
